# AID504770: E. coli YBA685 growth inhibition, screen for V. cholerae RctB inhibitors | E. coli YBA685 rctB-dependent plasmid, OD600 growth, 3 h; hits give low values | z-score (concentration not given with the values) | actives 0.27% (n = 130,000) | AID 504770;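 active = z-score under -2 on both plates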;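 also: wells of about 30 µL received 100 nL stock; score is relative to mean and SD of the test wells; the first replicate is given; strong numbers were not always called active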
# CapD inh: CapD enzyme inhibition. purified CapD enzyme, fluorescence intensity read-out; hits give low values; some hits fall short of the stated cut. z-score (no concentration beside the values). actives 0.23% (n = 140,000);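 active = z-score under -4 in either of two replicates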;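 also: stock transfer was 100 nL into about 40 µL; score is relative to mean and spread of the plate; one replicate is shown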
# * hit, by the source's call; x = not tested or not shown.
SMILES,AID504770,CapD inh
COc1ccc(C2=N/C(=C\c3ccc(OC(C)=O)c(OC)c3)C(=O)O2)c(Br)c1,x,0.53
CCOC(=O)c1sc(-c2ccccc2)nc1OC,0.35,4.3
CCCS(=O)(=O)c1csc(C(=O)OC)c1-n1cccc1,x,9.7
CC1CC(C)(C)NC(=S)N1CC(=O)N1CCN(Cc2ccccc2)CC1 (stereo not given),-0.45,-0.085
Cc1ccc(S(=O)(=O)N(C)C(F)F)cc1,0,-3.3
O=C(CN1CCN(Cc2ccc3c(c2)OCO3)CC1)N1c2ccccc2CCc2ccccc21,-0.05,x
COc1ccccc1C(=O)NNC(=O)c1cccs1,x,0.06
O=C(Nc1ccccc1)c1ccc2c(c1)OCCO2,-1.9,x
O=C(CSCCCn1c(=O)[nH]c2ccccc21)N1CCc2ccccc21,-1.6,x
O=C(Nc1cccc(C(F)(F)F)c1)c1ccc(-n2cncn2)c([N+](=O)[O-])c1,x,0.23
O=C1CC(CSc2nccc(-c3cccnc3)n2)=NN1c1ccc(Cl)cc1,2.5,-0.57
CCN(CC(=O)Nc1ccc(C#N)cc1)CC(=O)Nc1ccc2c(c1)OCCO2,-0.15,x
COCSC1=NC(c2ccc(SC)cc2)C(C(=O)OC(C)C)=C(C)N1 (stereo not given),-0.35,x
CCOC(=O)N1CCC(N2C(=O)c3ccc(C(=O)Nc4ccc(OC)cc4)cc3C2=O)CC1,-0.4,-0.67
Cn1ccnc1C(=O)c1cc(=S)[nH]c2ccccc12,0.85,x
CC(C(=O)Nc1ccc(C#N)cc1)N1CCN(c2ccc(O)cc2)CC1 (stereo not given),-0.25,x
Cc1cc(C(=O)CS(=O)c2ccc(Cl)cc2)cc(C)c1OC(=O)N(C)C (stereo not given),x,-0.02
N#Cc1c(Nc2ccccc2C(F)(F)F)s[nH]c1=O,x,0.56
Cc1ccc([N+](=O)[O-])cc1S(=O)(=O)N(Cc1ccco1)CC1CCCO1 (stereo not given),x,-0.61
COCCOC(=O)C1=C(C)NC(C)=C(C(=O)OCCOC)C1c1ccc(-c2ccc(Cl)cc2Cl)o1,x,15
CSc1sc(C(=O)NNC(=O)OCCN2CCN(c3ccc(C(F)(F)F)cn3)CC2)cc1-c1nc(C)cs1,x,3.1
COC(=O)c1ccc2c(=O)n(Cc3ccc(C(=O)NCCc4c[nH]c5ccccc45)cc3)c(=S)[nH]c2c1,x,-0.49
CC1CCCCN1C(=O)c1ccccc1NC(=O)c1ccco1 (stereo not given),-0.25,x
Cc1cccn2cc(CNC(=O)C(C)(C)C)nc12,-0.35,0.14
O=C(Nc1ccccc1)Nc1ccc(=O)n(Cc2c(Cl)cccc2Cl)c1,x,47
COc1cccc2cc(C(N)=O)/c(=N/NS(=O)(=O)c3ccc(C)cc3)oc12,1.9,-1.1
Cc1ccc(NC(=O)c2ccco2)nc1,0.65,x
Cc1nc(NC2=NCN(Cc3ccccc3)CN2)nc2ccccc12,-0.6,-0.52
CN(Cc1cccs1)C(=O)Cc1c[nH]c2ccccc12,-0.05,x
CC(=O)Nc1ccc(Nc2nc3nonc3nc2Nc2ccc(Br)cc2)cc1,x,-1.1
Cc1nc(-c2ccc(S(=O)(=O)N3CCCN(CCc4ccccc4)CC3)s2)cs1,-0.5,0.17
OCC1OC(Oc2ccc(O)cc2)C(O)C(O)C1O (stereo not given),-0.8,0.58
C=CC[N+]1(CC=C)CCOCC1,-0.7,x
CN(CCc1ccccn1)c1ncnc2sccc12,-0.8,x
O=C(NC1CCN(c2ccccc2)CC1)C1CCN(c2ccc(C(F)(F)F)cn2)CC1,x,1.6
C/C(=C\c1ccc2c(c1)OCO2)[N+](=O)[O-],x,-2.4
Cn1c(=O)c2c(nc3n2Cc2c(Cl)cccc2N3CCNC(=O)C2CCC2)n(C)c1=O,1.1,x
CN(C)/N=C/c1ccc(C2(O)C(=O)NC(=O)NC2=O)o1,1.5,-0.8
CCCCCn1c(-c2ccccc2)nc2ccccc21,-0.85,x
CC(=O)Nc1ccc(SCC(=O)NC(=O)NC2CCCCC2)cc1,1.5,x
CC1CCC(N2CCCC(CO)C2)CC1 (stereo not given),0,0.52
N#C/C(=N\Nc1cc(C(F)(F)F)cc(C(F)(F)F)c1)C(=O)c1ccco1,x,-2.6
O=C1CCCN1CCNC(=S)Nc1ccccc1,0.45,0.15
COc1cc(NC(=O)Cn2cnc([N+](=O)[O-])n2)cc([N+](=O)[O-])c1,x,-0.15
CCc1cc(SC/C(O)=C(\C#N)c2nc3ccccc3[nH]2)n2c(nc3ccccc32)c1C#N,-0.3,x
Cc1oc(CSCCSCc2cc(C(=O)O)c(C)o2)cc1C(=O)O,-0.75,x
COC(=O)Cn1cc(C(=O)c2ccco2)c2ccccc21,-0.05,-0.76
CCNC(=O)C1CN(S(=O)(=O)c2ccccc2)CCN1S(=O)(=O)c1ccccc1 (stereo not given),0,x
O=C(CC1SC(=NC2CC2)NC1=O)Nc1cc(C(F)(F)F)ccc1Cl (stereo not given),-0.8,x
S=C1C=C(N2CCCCC2)CC(c2ccc(Cl)cc2)S1 (stereo not given),0.55,-0.99
O=C1CN(C(=O)c2ccccc2)C(=O)CN1C(=O)c1ccccc1,-0.55,0.16
Cn1c(=O)c2c(ncn2CC(=O)Nc2ccccc2)n(C)c1=O,x,0.71
CC(NCc1ccc(F)cc1)C12CC3CC(CC(C3)C1)C2 (stereo not given),-0.8,-0.29
COc1cc(SC)ccc1C(=O)OCC(=O)N(C)C1(C#N)CCCCC1,-0.6,x
CN(C)c1ccc(CN2CCN(Cc3ccccc3)CC2)cc1,-0.45,-0.03
COc1ccc(C=Nc2ccc(C(C)(C)C)cc2)cc1,-0.5,0.075
CCN(c1ncnc2nc[nH]c12)C1CCCCC1,-1.4,-0.12
CC(=Nc1ccccc1)c1cccs1,0.95,-0.18
C=CCn1c(C)c2cc(Cl)c(Cl)cc2[n+]1C,1,-0.56
O=C(NC(=S)N1CCN(Cc2ccccc2)CC1)C1CCCCC1,0.4,x

# Look-ups from the list.
# O=C1CCCN1CCNC(=S)Nc1ccccc1 @ CapD inh = 0.15
# COc1ccc(C2=N/C(=C\c3ccc(OC(C)=O)c(OC)c3)C(=O)O2)c(Br)c1 @ CapD inh = 0.53
# OCC1OC(Oc2ccc(O)cc2)C(O)C(O)C1O (stereo not given) @ CapD inh = 0.58
# Cc1ccc(S(=O)(=O)N(C)C(F)F)cc1 @ CapD inh = -3.3

# Additional compounds.
SMILES,AID504770,CapD inh
COc1cccc(-c2cc(C(=O)NCCc3ccccc3)[nH]n2)c1,-1.1,0.97
Cc1cccc2nc(-c3ccc(N(C)C)cc3)c(NCCC(C)C)n12,-0.1,x
Cc1ccccc1N1CCN(S(=O)(=O)c2cc(Cl)cc(Cl)c2)CC1,x,0.51
CN1C(=O)S/C(=C/c2cccnc2)C1=O,-0.15,-0.41
O=c1[nH][nH]c2ccc(Cl)cc12,-1.2,11
CC1=CC(C)(C)N(C(=O)Cc2ccccc2)c2ccccc21,0.05,x
CC1=CC(=O)C2=C(C)C[C@H](O)[C@@H]3[C@H](OC(=O)[C@H]3C)[C@@H]12,x,-0.23
CCOc1cc(C=C2C(=O)NC(=O)NC2=O)ccc1OCCOc1ccc(C)cc1,x,-0.14
O=C(O)/C=C1/C(=O)Nc2ccccc21,0.45,x
O=C(C1=C(O)C(=O)N(c2ccccn2)C1c1ccccc1)c1cccs1 (stereo not given),-0.45,-1.4
O=C(CSc1ccc(Cl)cc1)N1CCC(C(F)(F)F)CC1,-0.1,0.56
Cc1ccc(C2=Nn3c(nnc3C3CCCCC3)SC2C)cc1 (stereo not given),0.9,x
CCOc1cc(C2Nc3ccccc3NC3=C2C(=O)CC(c2ccc(OC)c(OC)c2)C3)cc([N+](=O)[O-])c1O (stereo not given),x,-0.48
O=C(O)C1C2C=CC(C2)C1C(=O)N1CCC(c2nc(-c3cnccn3)no2)CC1 (stereo not given),x,-0.69
CC1CC(OC(=O)c2ccccc2O)CC(C)(C)C1 (stereo not given),x,-0.59
Oc1c(Cl)cc(Cl)cc1C=Nc1cc(C(F)(F)F)ccc1Cl,x,-1.4
CCN(CC)C(=O)C1CCCN(C(=O)c2ccc(N3CC4CC(C3)c3cccc(=O)n3C4)c(NC(=O)c3ccncc3)c2)C1 (stereo not given),x,-0.02
S=c1n(CN2CC=C(c3ccccc3)CC2)nc2sc3ccccc3n12,-0.7,x
Clc1ccc(OCc2noc(COc3ccc(Cl)cc3Cl)n2)c(Cl)c1,-0.3,-0.62
CC(=O)c1ccc(S(=O)(=O)N(Cc2ccco2)Cc2ccccc2OCc2ccccc2)cc1,x,0.3
CCC(O)c1nc2ccccc2n1CCOc1ccccc1 (stereo not given),-0.1,0.53
COc1ccc2[nH]c(=O)c(CN(Cc3cccs3)C(=O)c3cccs3)cc2c1,0,x
CN(CC1COc2ccccc2O1)C(=O)C1(c2ccccc2)CC1 (stereo not given),0.05,x
Cc1cc(C)c(C(=O)c2ccccc2)cc1C(=O)c1ccccc1,0.45,-0.24
COc1ccc(C(=O)c2coc3ccc(OC(C)=O)cc23)cc1,-1,-0.38
O=C(NCCc1nc2ccccc2[nH]1)Nc1ccccc1,-0.5,-0.005
COC(=O)c1ccc(C(=O)OC)c(NC(=O)c2cc3c(ccc4ccccc43)oc2=O)c1,x,0.68
O=C1CC(C(=O)Nc2ccc(C(=O)O)c(O)c2)C(c2ccccc2)O1 (stereo not given),0.4,24
CCN(CC)C(=O)C1=C(C)N=C2SC(C#N)=C(N)N2C1c1cc(OC)ccc1OC (stereo not given),-0.25,x
CCN1CCN(c2ccc(NC(=O)C(C)C)cc2)CC1,-0.55,-0.065
CN(CCOC(=O)N1CCC(C(O)(c2ccccc2)c2ccccc2)CC1)Cc1ccccc1,x,-0.22
C(=N/c1nccs1)/Nc1nccs1,-0.05,-2.2
COc1cc(-c2nc(C=Nc3ccc(Cl)cc3C)c(O)o2)cc(OC)c1OC,x,0.14
CC1CC(=O)NN=C1c1ccc(N)c(N)c1 (stereo not given),-0.85,-2.8
O=c1oc2ccc3ccccc3c2cc1-c1nc(-c2cccs2)cs1,x,-0.64
COc1cccc(C2=NN(C(=O)c3ccc(C(C)(C)C)cc3)C(O)(C(F)(F)F)C2)c1 (stereo not given),x,-0.13
COc1ccc(N2CCN(CC(O)c3ccc4c(c3)CCN4C(C)=O)CC2)cc1 (stereo not given),0.3,0.77
CCOC(=O)c1cc(C(=O)OCC)c2nnc(-c3ccncc3)n2c1N,x,0.41
CCOC(=O)c1cc(C(=O)OCC)c(C)nc1C,-0.65,0.065
O=P1(N2CCN(c3ccc(Cl)cc3)CC2)COc2ccccc2OC1,-0.25,0.055

# Single records (already shown). Screens in order: AID504770 | CapD inh
# COc1ccc(C(=O)c2coc3ccc(OC(C)=O)cc23)cc1 reads -1 | -0.38
# O=P1(N2CCN(c3ccc(Cl)cc3)CC2)COc2ccccc2OC1 reads -0.25 | 0.055
# COc1cccc(C2=NN(C(=O)c3ccc(C(C)(C)C)cc3)C(O)(C(F)(F)F)C2)c1 (stereo not given) reads x | -0.13
# CCN1CCN(c2ccc(NC(=O)C(C)C)cc2)CC1 reads -0.55 | -0.065

# Other entries follow.
SMILES,AID504770,CapD inh
N#Cc1cc(C#N)c(SCC(=O)N2c3ccccc3Sc3ccccc32)nc1N,x,0.65
O=C1c2ccccc2C(=O)N1CCCSc1nccn1-c1ccccc1,x,0.32
O=S1(=O)N=C2CCCCCN2C(c2ccc(N3CCOCC3)cc2)N1 (stereo not given),-0.25,x
NC(=S)c1sc(=S)n(-c2ccccc2)c1N,0,-1.3
O=C1c2ccccc2C(=O)N1CSc1nnc(Nc2ccccc2)s1,0.4,x
O=C(O)c1ncc(C(F)(F)F)cc1Cl,-0.9,0.39
Nc1nnc(-c2cccs2)c(=O)n1N,-0.9,x
CCOc1ccc(S(=O)(=O)NC)cc1,1.3,-0.08
O=C(CCS(=O)(=O)c1cccs1)Nc1ccc(C(=O)NCc2ccccc2)cc1,-1.1,0.24
CCOc1ccc(C(=N/O)/C(C)=N/O)cc1,0.4,-0.05
O=C1CN(C(=O)CSc2ncc(C(F)(F)F)cc2Cl)c2ccccc2N1,0,x
O=C(Nc1ccc2c(c1)OCCO2)C1CCN(c2ccc(-c3cccs3)nn2)CC1,-0.95,0.14
CC(C)c1ccc2occ(CC(=O)Nc3ccc(S(N)(=O)=O)cc3)c2c1,0.95,0.47
O=C(/C=C/c1cccs1)NC(=S)N1CCCCC1,-0.4,-2.6
COC(=O)C1=C(C)NC(C)=C(C(=O)OC)C1C(=O)OCC(=O)c1ccc2c(c1)NC(=O)CO2,0.55,x
CCN1C(=O)c2ccccc2S(=O)c2ccc(C(=O)N3CCc4ccccc43)cc21 (stereo not given),-1.2,-0.13
CC(C)(C)c1cc(C(C)(C)C)n(-c2ccc(N3CC(C(=O)O)CC3=O)cc2)n1 (stereo not given),0.25,0.41
COc1ccc(N2CCN(C(CNS(=O)(=O)c3c(C)cc(C)cc3C)c3ccco3)CC2)cc1 (stereo not given),0.05,x
O=c1cc(-c2ccccc2)c2cc(Br)ccc2[nH]1,-1.1,-0.37
Cc1nnc(NC(=O)C(C)N2CCCC2)s1 (stereo not given),-0.25,x
CCOc1ccc(C(C)(C)C)cc1S(=O)(=O)n1c(C)nc2ccccc21,-0.7,-0.18
CCOC(=O)c1c(NC(=O)Cc2ccccc2)sc2c1CCCC2,-0.2,0.095

# Reprinted at random: six records from the list, in no set order.
SMILES,AID504770,CapD inh
Nc1nnc(-c2cccs2)c(=O)n1N,-0.9,x
O=c1cc(-c2ccccc2)c2cc(Br)ccc2[nH]1,-1.1,-0.37
COc1ccc(N2CCN(C(CNS(=O)(=O)c3c(C)cc(C)cc3C)c3ccco3)CC2)cc1 (stereo not given),0.05,x
O=C(CCS(=O)(=O)c1cccs1)Nc1ccc(C(=O)NCc2ccccc2)cc1,-1.1,0.24
NC(=S)c1sc(=S)n(-c2ccccc2)c1N,0,-1.3
COC(=O)C1=C(C)NC(C)=C(C(=O)OC)C1C(=O)OCC(=O)c1ccc2c(c1)NC(=O)CO2,0.55,x

# From PubChem BioAssay
